Sa growth inh = inhibitors of Staphylococcus aureus growth at 42 °C. S. aureus RN4220 growth, OD600, 20 h; stronger effect = lower value. relative growth, % (test concentration not listed). actives 0.53% (n = 170,000). AID 720641;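 active = growth at 42 °C up to 50% and 20 or more points under that at 30 °C, or under 10% at both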;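 note: 300 nL library stock went into each well; scaled to the means of positive and negative controls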
GIV-Gai inh = blocks GIV peptide binding to rat Galpha-i3; actives 0.42% (n = 210,000); P08753; AID 1224905; Galpha-i3/FITC-GIV peptide fluorescence polarization, 90 min; stronger effect = lower value; scaled: aluminum fluoride 0%, vehicle 100%; percent of control (FP), % (no concentration beside the values);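 active = replicate mean at 85% of control or lower, very high polarization wells dropped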;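 note: wells of about 15 µL received 100 nL stock; the first replicate is given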
Target sequence (P08753 whole entry, looked up): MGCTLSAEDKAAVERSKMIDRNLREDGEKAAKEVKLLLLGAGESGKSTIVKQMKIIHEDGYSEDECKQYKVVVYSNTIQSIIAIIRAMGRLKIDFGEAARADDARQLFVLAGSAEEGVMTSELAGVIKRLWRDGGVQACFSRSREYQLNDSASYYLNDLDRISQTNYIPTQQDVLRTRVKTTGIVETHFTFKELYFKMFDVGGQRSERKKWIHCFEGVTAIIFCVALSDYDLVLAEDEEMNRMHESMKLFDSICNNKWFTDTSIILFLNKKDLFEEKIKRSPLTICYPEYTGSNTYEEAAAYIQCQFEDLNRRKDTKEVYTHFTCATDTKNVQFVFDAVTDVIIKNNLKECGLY
HCMV UL50-53 inh = cytomegalovirus nuclear egress complex inhibition; HTRF UL50-UL53 interaction, normalized percent inhibition; inhibition, % (test concentration not listed); actives 0.15% (n = 190,000);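 active = both replicates at 50% or more, plus weaker picks with an unusually low signal ratio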;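 note: stock transfer was 100 nL into about 20 µL; 0% = negative control wells and 100% = wells with untagged competitor protein; inactives centre near -12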
Sa growth inh second temp = also measured in Sa growth inh; calls as there; relative growth, %; measured here: growth at 30 °C;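 optical density after 20 h as mean of two plates; 100% = untreated growth and lower means inhibition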
* = called active by the depositor; / = not tested or not shown; & = joins results of further samples.

Each structure is followed by: Sa growth inh, Sa growth inh second temp, GIV-Gai inh, HCMV UL50-53 inh
Cc1ccccc1-c1nsc(SCC(=O)N2CCCCC2)n1
  100, 93, 107, -24
O=C(Cn1c(COc2ccccc2)nc2ccccc21)Nc1ccc(F)cc1
  /, /, 100, -23
Cc1ccc(NC(=O)C2=C(C(=O)O)CCCC2)cc1Br
  118, 102, 102, 3
Cc1ccc(Oc2ncccc2NC(=O)c2ccc(Cl)cc2Cl)c2c1CCC2
  93, 93, 102, 10
CCC(C)Sc1nnc(Cn2c(=O)sc3ccccc32)n1-c1ccc(OC)cc1 (stereo unspecified)
  92, 88, 108, -42
Cc1ccc(S(=O)(=O)N2CCCC(c3nc4c(nnn4Cc4ccc(OC(F)(F)F)cc4)c(=O)[nH]3)C2)cc1 (stereo unspecified)
  107, 94, 101, -23
CCCc1cc(=O)[nH]c(SC(C)C(=O)NCc2ccccc2)n1 (stereo unspecified)
  85, 96, /, -30
c1ccc(-n2nnnc2Oc2ccc(CNCCc3c[nH]c4ccccc34)cc2)cc1
  /, /, 97, 6
COc1ccccc1NC(=O)Cn1c(=O)n(Cc2ccc3c(c2)OCO3)c(=O)c2oc3ccccc3c21
  109, 95, 104&102, 52
O=C(OCc1cc(=O)n2ccccc2n1)c1ccc(Cl)c(S(=O)(=O)N2CCCC2)c1
  87, 93, /, -24
COc1cc(CN(C)Cn2cnc3ccccc32)ccc1OC(F)F
  88, 96, /, -15
C=CCOC(=O)OCn1c(=O)sc2ccccc21
  74, 95, /, 5
Nn1c(-c2ccccc2)nc2ccccc2c1=O
  86, 62, /, -12
CCOc1ccc(N2C(=O)NC(=O)/C(=C\c3ccc(OCC(=O)OC)c(OC)c3)C2=O)cc1
  /, /, 105, -12
Cc1ccccc1OCC(O)Cn1c(=N)n(CCN2CCCCC2)c2ccccc21 (stereo unspecified)
  113, 81, 109, -17
CCOCCCNC(=O)C(c1ccc(OC)cc1)N(Cc1cccs1)C(=O)c1ccc(NC(C)=O)cc1 (stereo unspecified)
  94, 86, 102, -7
CCOc1ccc(N2C(=O)C3N=NN(Cc4cccc(F)c4)C3C2=O)cc1 (stereo unspecified)
  /, /, 94, -24
Cc1c(C(=O)Nc2cccc(F)c2)oc2c1-c1nn(Cc3c(F)cccc3Cl)cc1CC2
  106, 110, 108, 17
N#Cc1ccc(OCc2ccc3nonc3c2)cc1
  106, 82, 100, -11
C/C(=N\NC(N)=O)C1(C)N(O)C(C)(C)C(c2ccco2)=[N+]1[O-] (stereo unspecified)
  105, 99, /, -5

3 entries drawn at random from those above, as already listed:
Each structure is followed by: Sa growth inh, Sa growth inh second temp, GIV-Gai inh, HCMV UL50-53 inh
CCOc1ccc(N2C(=O)C3N=NN(Cc4cccc(F)c4)C3C2=O)cc1 (stereo unspecified)
  /, /, 94, -24
c1ccc(-n2nnnc2Oc2ccc(CNCCc3c[nH]c4ccccc34)cc2)cc1
  /, /, 97, 6
Cc1ccc(S(=O)(=O)N2CCCC(c3nc4c(nnn4Cc4ccc(OC(F)(F)F)cc4)c(=O)[nH]3)C2)cc1 (stereo unspecified)
  107, 94, 101, -23

(continued)
Each structure is followed by: Sa growth inh, Sa growth inh second temp, GIV-Gai inh, HCMV UL50-53 inh
O=S(=O)(NC1CCCCC1)c1ccc(N2CCOCC2)nc1
  98, 94, 105, -10
CC(C)(C)C(=O)OCc1cc(=O)n2nc(C3CCCCC3)sc2n1
  82, 91, 103, /
CCN(Cc1ccccc1)c1ccc(C(=O)O)cc1NS(=O)(=O)c1ccccc1Cl
  /, /, 104, 13
CCCCNC(=O)c1ccc2c(c1)NC(=O)CN2C
  69, 67, 106, -17
COc1ccc(N2CCN(C(=O)c3cc4c(=O)n(Cc5cccnc5)ccc4nc3C)CC2)cc1
  80, 86, 156, /
O=C(Nc1cc(=O)c2ccccc2o1)OCc1ccccc1
  93, 86, 102, /
Cc1ccc(N(CC(O)CN2C(=O)NC(C)(C)C2=O)S(=O)(=O)c2ccccc2)cc1 (stereo unspecified)
  119, 94, /, -6
O=C(OCc1ccccc1)c1ccccn1
  88, 91, /, -2
O=C(c1cccs1)c1cn(CCOc2ccc(Cl)cc2)c2ccccc12
  104, 105, 105, 21
Cc1ccc(NC(=O)CSc2nc(=O)n(Cc3ccccn3)c3c2CCC3)cc1F
  82, 80, 103, /
Cc1cccc(C(=O)NCCc2nc(-c3ccccc3)n[nH]2)c1
  /, /, 97, -23
Cc1cccc(NC(=O)c2cccc(N3C(=O)CCC3=O)c2)c1
  101, 81, 105, 11
c1cncc(-c2nn[nH]n2)c1
  91, 86, 101, -18
COCCNC(=O)c1ccc(NC(=O)c2cccc(OC)c2)cc1
  94, 96, 105, -1
Cc1ccc(S(=O)(=O)c2ccc(C(=O)N3CCN(Cc4ccc5c(c4)OCO5)CC3)cn2)cc1
  /, /, 102, -7
CCOc1cc(C2c3c(oc4ccccc4c3=O)C(=O)N2Cc2ccccc2Cl)ccc1O (stereo unspecified)
  103, 97, 97, -41
NC(=O)c1c(Nc2ccccc2)n[nH]c1N
  114, 90, /, -20
N#CC(C#N)=c1s/c(=C\c2ccc(-c3ccccc3Cl)o2)c(=O)n1-c1ccccc1
  74, 77, /, -13
Cc1oc(C(C)(C)C)cc1C(=O)N1CCN(c2ncccc2C(F)(F)F)CC1
  107, 96, 102, -23
CC1(C)C2CC=C(/C=N/NC(=O)c3cccnc3)C1C2 (stereo unspecified)
  92, 85, /, -20
Clc1ccccc1Nc1ncnc2c1nc1n2CCCCC1
  116, 89, 107, /
CCn1ccc2cc(S(=O)(=O)N3CCCN(C(=O)Nc4cccc(C)c4C)CC3)ccc21
  /, /, 102, -1
O=C(NC1CCCCC1)N1CCC(c2nc(-c3ccc(Cl)cc3)no2)CC1
  /, /, 101, -30
Cc1ccc(OCc2nc(SCC(=O)c3ccc4c(c3)OCO4)n[nH]2)cc1
  69, 90, /, -19
CCOc1ccc(CNC(=O)c2cnc3sc(N4CCC(C)CC4)nn3c2=O)cc1OC
  93, 97, 102, /
Cc1ccccc1-c1nc2cc(Cl)ccc2c(=O)o1
  106, 88, 104, -8
CCCNC(=O)c1ccc(-c2ccccc2)s1
  98, 86, 105, -50
CCC1CCCCN1C(=O)c1cn(C)c(=O)c2cc(OC)c(OC)cc12 (stereo unspecified)
  80, 85, 98, -32
CN1CCc2c(sc3c2CN(C(=O)Nc2cccc(Cl)c2)C(c2ccccc2)c2cccn2-3)C1 (stereo unspecified)
  /, /, 115, -19
COc1ccc(-c2cc3c(=O)n(CC(=O)N(C)Cc4ccccc4)nc(C)n3n2)cc1
  91, 88, 101, 3
O=C(NCCc1ccc(F)cc1)C(=O)NCC(c1ccco1)S(=O)(=O)c1cccs1 (stereo unspecified)
  113, 84, 97, /
O=C(O)CCNS(=O)(=O)c1ccccc1C(F)(F)F
  113, 86, 103, /
CCN(CC)C(=O)c1sc(NC(=S)NCCn2cc(Br)cn2)c(C(=O)OC)c1C
  76, 91, 105, -6
CCCn1c(C)cc(/C=C(\C#N)C(N)=S)c1C
  94, 84, /, -44
Cc1cccc(C)c1NC(=O)Cn1c(=O)n(CCC(=O)NCc2ccc3c(c2)OCO3)c(=O)c2sccc21
  88, 91, 109, -2
N#Cc1cn(CCCOc2ccccc2Cl)c2ccccc12
  93, 88, 97, 7
Cc1ccnc(SCC(=O)c2ccc(Br)cc2)n1
  94, 94, 97, -8
N#Cc1c(NC(=O)c2ccc(N3C(=O)C4C5C=CC(C5)C4C3=O)cc2)sc2c1CCCC2 (stereo unspecified)
  /, /, 106, -13
O=C(CSc1nc2[nH]ncc2c(=O)n1-c1ccccc1)c1ccc2c(c1)OCCO2
  107, 102, 105, -13
Cc1ccc(-c2cc(-c3ccc4c(c3)NC(=O)CO4)nc3c2COc2ccccc2-3)cc1
  101, 93, 109, 13
O=C1CN(C(=O)Cc2ccsc2)c2ccccc2N1
  84, 95, /, -17
CCC(=O)NC(C)c1nc(-c2ccccc2OC)no1 (stereo unspecified)
  /, /, 99, -5
CCOc1cccc(NC(=O)c2sc3nc(-c4ccc(F)cc4)ccc3c2N)c1
  101, 93, 113, -18
CC(=O)Nc1ccc(S(=O)(=O)NC2CCCCC2C)cc1 (stereo unspecified)
  99, 105, 103, 11
COc1ccc(N2COc3cc4c(cc3C2)OCO4)cc1
  86, 71, 113, -43
NNC(=O)c1cn2cc(C(F)(F)F)cc(Cl)c2n1
  93, 81, 100, -19
CCn1c(Nc2ccccc2Cl)nc2ccccc21
  124, 94, 104, -19
CCN(CC)c1nc(C)nc2sc(C(=O)Nc3cc(Cl)ccc3OC)c(C)c12
  106, 86, 101, /
CCCCN(CC)CCCn1cnc2c([nH]c3ccc(Cl)cc32)c1=O
  117, 88, 111, -16
Fc1ccccc1Cn1nnc2ccccc21
  68, 90, 100, 5
CCOc1ccc(-c2nc(CNCCN3CCOCC3)cs2)cc1OC
  94, 94, /, -30
O=C(CSc1nc2cc(Cl)ccc2c(=O)n1Cc1ccco1)c1ccc(Cl)s1
  106, 80, /, 20
COc1ccc(Oc2cc3c(cc2NS(=O)(=O)c2ccccc2)n(C)c(=O)c(=O)n3C)cc1
  /, /, 101, -10
COc1ccc(COCC(O)CN2CCC(C(N)=O)CC2)cc1 (stereo unspecified)
  94, 89, 103, 0
Cc1nc2nc(-c3ccc(C(C)(C)C)cc3)nn2c(C)c1CC(=O)N1CCCCC1C (stereo unspecified)
  /, /, 103, -23
O=C(NC1CCCCC1)NC1(C(=O)N2CCN3CCCC3C2)CCCCC1 (stereo unspecified)
  98, 91, 102, -28
COC(=O)C(CCSC)NC(=O)C1CCN(c2ncnc3c2nc2n3CCCCC2)CC1 (stereo unspecified)
  119, 89, 101, /
O=C(CCCc1nnc2c(=O)n(-c3ccc(Cl)cc3)ccn12)N1CCC(N2CCCCC2)CC1
  /, /, 108, 0
Cc1csc2nc(COC(=O)c3ccccc3NC(=O)COc3ccccc3F)cc(=O)n12
  110, 64, 102, /
C/C(=N\O)C(=O)OC1CC(C)CCC1C(C)C (stereo unspecified)
  77, 78, 100, 9

Continuation.
Each structure is followed by: Sa growth inh, Sa growth inh second temp, GIV-Gai inh, HCMV UL50-53 inh
COc1cc(OC)c(NC(=O)C2CCCN(c3nnc(-n4cccc4)s3)C2)cc1Cl (stereo unspecified)
  82, 76, 108, 5
CN1C(=O)CSc2ccc(NC(=O)N3CCC(N4CCCCC4)CC3)cc21
  113, 96, 99, -8
O=S(=O)(c1ccc(N=C=S)cc1)N1CCOCC1
  98, 93, /, -24
C=CCn1c(=O)c(C(=O)Nc2ccc(I)cc2)c(O)c2ccccc21
  /, /, 104, -14
CNC(=O)c1ccc(N2CCSc3ccccc32)s1
  105, 84, 100, -48
CNC(=S)Nc1cc(C)ccn1
  79, 87, /, -6
O=C(O)CNS(=O)(=O)Cc1ccccc1
  82, 98, /, 3
CCCCNC(=O)CSc1nc2ccccc2nc1Cc1ccc(Cl)cc1
  105, 100, 101, /
CCS(=O)(=O)CCn1c([N+](=O)[O-])cnc1C
  91&87&88, 84&83&84, 96, -78&-48&-28&-150&-65
C=CCNC(=O)CSc1nc2ccccc2o1
  107, 98, /, -7
Cc1noc(C)c1CSc1ccc(Br)cc1
  /, /, 99, -12
COc1ccc2c(c1)CCc1c(C(=O)Nc3cc(Br)ccc3O)noc1-2
  /, /, 105, -3
CC1CCCCN1S(=O)(=O)c1ccc2c(c1)oc(=O)n2CC(=O)Nc1ccc(Cl)cc1 (stereo unspecified)
  119, 97, 107, /
Cc1ccccc1-c1nnc(C2CCN(S(=O)(=O)c3ccc4c(c3)CCCC4)CC2)o1
  97, 92, 104, 0
Cc1ccc(Cl)c(NC(=O)COC(=O)c2ccncc2)c1Cl
  128, 88, /, -27
CCOc1ccc(-n2c(C)c(C)c3c2ncn2ncnc32)cc1
  /, /, 107, -9
CCCOc1cccc(C(=O)N(Cc2sccc2C)C2CCS(=O)(=O)C2)c1 (stereo unspecified)
  106, 83, 103, 1
Cc1cccc(C)c1NC(=O)Cn1c(S(=O)(=O)CC(N)=O)nc2ccccc21
  84, 87, 101, /
CCC(C)N1C(=O)c2c(-n3cccc3)c3cc(C)ccc3n2CC1(C)C(=O)NC1CCCC1 (stereo unspecified)
  /, /, 95, -10
O=c1ccnc(S/C=C/c2ccccc2)[nH]1
  106, 99, 95, 3
N#Cc1ccc(S(=O)(=O)N2CCN(c3cccc4[nH]ccc34)CC2)cc1
  98, 94, 108, 2
CCCCOc1ccc(CNC(=O)c2ccc(-c3nc(CN4CCc5ccccc54)c(C)o3)cc2)cc1
  114, 70, 103, /
O=C(Nc1cccc(F)c1)N1C2CCC1CC(O)(c1cccnc1)C2 (stereo unspecified)
  71, 76, 99, -16
CC(C)NC(=O)C1CCN(C(=O)NCc2ccccc2)CC1
  83, 88, 98, -22
COc1ccccc1OC(C)C(=O)Nc1cccc(-c2nc3ccccc3o2)c1 (stereo unspecified)
  112, 54, 150, -8
Cc1c(NC(=O)c2cccs2)cccc1-c1nc2cc(Cl)ccc2o1
  90, 77, 102, -16
COC(=O)c1c(NC(C)=O)sc2c1CCS2
  90, 90, 104, -38
Cc1cc(C)n2ncc(/C(N)=N/O)c2n1
  102, 90, 104, -4
O=C(CSc1nccn1-c1ccc(Cl)cc1)Nc1cccc2ccccc12
  105, 67, 96, /
Cc1ncc(CO)c2cc(-c3nc(-c4ccc(F)cc4)no3)c(=O)oc12
  /, /, 108, -81
Cc1ccccc1NC(=O)CCCn1sc2ccccc2c1=O
  84, 99, 102, /

Source: PubChem (ICCB-Longwood Screening Facility, Harvard Medical School)
